YopH PTP inh: YopH tyrosine phosphatase inhibitors, primary screen, biochemical, fluorescence Ex485/Em525; 0.16% of 140,000 active; YopH tyrosine phosphatase [Yersinia enterocolitica]; inhibition, %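 (about 10 µM by stock and volumes)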;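 active = inhibition of 50% or more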;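 note: controls were vehicle for no effect and minimum signal wells for full effect; inactives centre near -20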
RecA splice inh: Mtb RecA intein splicing inhibitors, primary screen, biochemical, fluorescence, HTS; Protein RecA (Mycobacterium tuberculosis (strain ATCC 25618 / H37Rv)), P9WHJ3; cell-free RecA intein splicing; inhibition, %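 (about 9 µM by stock and volumes)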; 0.75% of 290,000 active; in the data active = inhibition above about 30%; inconclusive = no clear call, values can overlap the other calls;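 note: 0% = vehicle wells and 100% = reference inhibitor control wells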
Target sequence (P9WHJ3 whole entry, looked up, canonical isoform): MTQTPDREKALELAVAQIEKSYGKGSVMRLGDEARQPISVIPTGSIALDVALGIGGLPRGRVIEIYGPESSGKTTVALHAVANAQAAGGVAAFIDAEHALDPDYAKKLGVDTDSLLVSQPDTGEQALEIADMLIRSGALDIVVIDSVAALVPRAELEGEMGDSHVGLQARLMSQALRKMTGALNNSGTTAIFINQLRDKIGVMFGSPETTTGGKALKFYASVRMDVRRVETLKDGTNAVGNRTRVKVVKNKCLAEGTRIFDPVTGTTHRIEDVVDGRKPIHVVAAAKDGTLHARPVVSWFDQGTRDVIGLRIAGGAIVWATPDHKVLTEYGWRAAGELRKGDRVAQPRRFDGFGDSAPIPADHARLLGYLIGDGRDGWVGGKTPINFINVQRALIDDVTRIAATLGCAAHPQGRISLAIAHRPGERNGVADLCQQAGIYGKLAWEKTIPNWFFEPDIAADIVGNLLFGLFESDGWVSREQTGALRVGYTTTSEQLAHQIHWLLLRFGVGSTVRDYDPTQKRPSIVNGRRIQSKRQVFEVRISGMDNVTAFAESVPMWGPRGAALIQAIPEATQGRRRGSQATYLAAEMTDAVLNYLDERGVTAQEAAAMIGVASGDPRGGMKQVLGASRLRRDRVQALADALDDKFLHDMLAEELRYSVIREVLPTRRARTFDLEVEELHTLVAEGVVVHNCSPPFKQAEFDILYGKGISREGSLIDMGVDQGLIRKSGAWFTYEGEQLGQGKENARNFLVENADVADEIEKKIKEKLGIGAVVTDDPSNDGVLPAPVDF
Mtb growth: M. tuberculosis H37Rv growth inhibitors, H37Rv strain (AID 1626) | M. tuberculosis H37Rv growth inhibition; higher % means a stronger effect | inhibition, % at 10 µM; hits with a dose series show IC50 in µM | 0.95% of 220,000 active;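 active = confirmed in a dose series; inconclusive = inhibition above 80% but not taken into the dose series; inactive = below 80% or under 30% at every dose of the series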;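 note: bacteria incubated seven days before Alamar blue readout; 0% = bacteria only wells and 100% = bacteria with antibiotic wells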
Arbovirus anti: antivirals against arbovirus infection, primary screen, cell-based, full library, 10K replicate subset. arbovirus infection cell-based antiviral screen. inhibition, % at 10 µM. 0.37% of 200,000 active;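 active = inhibition from about 30%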;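 note: bluetongue infection of BSR cells; cell survival read as ATP light after 72 h; 0% = infected wells without compound and 100% = uninfected wells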
Mtb bLac sens: beta-lactam sensitization of Mtb H37Rv, H37Rv; inhibition, % at 25 µM; M. tuberculosis H37Rv growth with meropenem, percent inhibition; hits of this screen are not shown here; 0.27% of 330,000 active;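 active = about 74% or more and at least 40 points above the plate without the antibiotic, then above 30% in a dose series; inconclusive = first-round hits that could not be retested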;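 note: growth measured after seven days incubation then overnight dye step; 0% = bacteria only wells and 100% = bacteria with antibiotic; twin plates without the antibiotic show which effects depend on it; some results filed as inactive read as strong as hits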
Arbovirus anti repeat: further read-out of Arbovirus anti, marked with its call; inhibition, %; measured here: 10K subset replicate screen; many hits read low in the repeat;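 first of two repeat runs on a subset; 0% = infected and 100% = uninfected wells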
* hit, by the source's call. A portion of the library (hit frequency here may not be typical).

What do the screens show for `CC1(C)CC(=O)C(C=NCCc2ccccn2)=C(O)C1`?
YopH PTP inh: -31; RecA splice inh: 1.8; Mtb growth: -13%; Arbovirus anti: 8; Mtb bLac sens: 8

Results for COc1cc(/C=N/NC(=O)c2ccccc2O)ccc1OCC(=O)Nc1ccccc1 ?
RecA splice inh: 0.7; Mtb bLac sens: 1

Results for O=C(c1ccco1)N1CCC(c2nc3c(nnn3Cc3c(Cl)cccc3Cl)c(=O)[nH]2)CC1 ?
RecA splice inh: -1.5; Mtb bLac sens: 4

How did O=C(c1ccc(O)c(Cl)c1)N1CCN(S(=O)(=O)c2ccccc2)CC1 do in these assays?
RecA splice inh: -2.1; Mtb bLac sens: 0

What do the screens show for `CCS(=O)(=O)c1ccc(O)c(NC(=O)/C=C/c2ccc(Cl)cc2)c1`?
RecA splice inh: -2.8; Mtb growth: 3%; Mtb bLac sens: -4

How did Cc1cc(C)cc(N(C(=O)c2snc(C(N)=O)c2N)C(C(=O)NCC2CCCO2)c2cccs2)c1 (centres undefined) do in these assays?
RecA splice inh: 0.7; Mtb growth: 5%; Arbovirus anti: -4; Mtb bLac sens: 1

How did CC1=CCP(=O)(c2ccccc2)C1 (centres undefined) do in these assays?
YopH PTP inh: -30; RecA splice inh: -0.2; Mtb growth: -14%; Arbovirus anti: 4; Mtb bLac sens: -8

How did O=C(CNC(=O)c1ccc(Cl)cc1Cl)NCC(=O)Nc1ccccc1N1CCOCC1 do in these assays?
YopH PTP inh: -46; RecA splice inh: 0.6; Mtb growth: -1%; Arbovirus anti: 10; Mtb bLac sens: -7

Results for CC(C)N1CCN(CC2COc3ccccc3O2)CC1 (centres undefined) ?
RecA splice inh: -1.9; Mtb bLac sens: -5

What do the screens show for `CC1=NN(Cc2ccccc2)C(=O)C1C(c1ccccc1)C(C#N)C#N` (centres undefined)?
YopH PTP inh: -2; RecA splice inh: 88*; Mtb growth: 1%; Arbovirus anti: 1; Mtb bLac sens: 6

Entries from the list above that have sulfur, in the order listed:
How did O=C(c1ccc(O)c(Cl)c1)N1CCN(S(=O)(=O)c2ccccc2)CC1 do in these assays?
RecA splice inh: -2.1; Mtb bLac sens: 0

What do the screens show for `CCS(=O)(=O)c1ccc(O)c(NC(=O)/C=C/c2ccc(Cl)cc2)c1`?
RecA splice inh: -2.8; Mtb growth: 3%; Mtb bLac sens: -4

How did Cc1cc(C)cc(N(C(=O)c2snc(C(N)=O)c2N)C(C(=O)NCC2CCCO2)c2cccs2)c1 (centres undefined) do in these assays?
RecA splice inh: 0.7; Mtb growth: 5%; Arbovirus anti: -4; Mtb bLac sens: 1

Additional entries:
What do the screens show for `Cc1cccc(NC(=O)N(Cc2nc3ccccc3c(=O)[nH]2)C2CCCC2)c1`?
YopH PTP inh: 11; RecA splice inh: 2.0; Mtb growth: 22%; Arbovirus anti: 4; Mtb bLac sens: -2

Results for CC(=O)Nc1ccc(S(=O)(=O)N2CCN(c3ccccn3)CC2)cc1 ?
YopH PTP inh: -4; RecA splice inh: -2.5; Mtb growth: -17%; Arbovirus anti: 2; Mtb bLac sens: -8

What do the screens show for `C=C(c1ccc(OCCO)cc1)c1ccc(OCCO)cc1`?
YopH PTP inh: -18; RecA splice inh: -2.6; Mtb growth: 1%; Arbovirus anti: 2; Mtb bLac sens: 1

What do the screens show for `O=C(NCCN1CCN(c2ccccc2)CC1)C1(S(=O)(=O)c2ccc(Cl)cc2)CC1`?
YopH PTP inh: -21; Mtb growth: -3%; Arbovirus anti: 1; Mtb bLac sens: -2

Results for Nc1c2c(nn1-c1ccccc1)CCC2 ?
RecA splice inh: 0.6; Mtb bLac sens: -1

What do the screens show for `CCOC(=O)c1c(NC(=O)CSc2nnc(-c3cccnc3)o2)sc2c1CCC2`?
YopH PTP inh: -24; RecA splice inh: 0.7; Mtb growth: -7%; Arbovirus anti: 0; Mtb bLac sens: 29

What do the screens show for `CCOc1ccc(NC2OC(C)C(O)C(O)C2O)c([N+](=O)[O-])c1` (centres undefined)?
RecA splice inh: -1.3; Mtb growth: 8%; Arbovirus anti: -1; Mtb bLac sens: 4

Results for C/C(=N\NC(=O)c1ccncc1)c1ccc(N(C)C)cc1 ?
RecA splice inh: -3.0; Mtb growth: inconclusive; Arbovirus anti: 1; Mtb bLac sens: 97

How did O=C1NC(=Nc2ccccc2)c2ccc([N+](=O)[O-])cc21 do in these assays?
YopH PTP inh: -44; RecA splice inh: -2.7; Mtb growth: 2%; Arbovirus anti: -8; Mtb bLac sens: -1

Results for C/C(=N\NC(=O)c1cc2ccccc2cc1O)c1cccs1 ?
RecA splice inh: -11; Mtb bLac sens: -1

Results for CCC1(CC)C(=O)C2=C3C1[C@H](C(=O)OC)CC(C(=O)OC)C[C@H]3[C@H]1C(=O)N(c3ccccc3)C(=O)[C@H]1[C@H]2C (some centres undefined) ?
RecA splice inh: -0.2; Mtb growth: 4%; Mtb bLac sens: -13

How did CCc1ccc2c(c1)C(C)=CC(C)(C)N2 do in these assays?
YopH PTP inh: -31; RecA splice inh: 0.9; Mtb growth: 3%; Arbovirus anti: -3; Mtb bLac sens: -6

Results for O=C(Nc1nnc(-c2ccco2)s1)c1ccccc1 ?
YopH PTP inh: -36; RecA splice inh: -3.1; Mtb growth: -10%; Arbovirus anti: 8; Mtb bLac sens: 4

How did N#Cc1ccc(C(=O)OCC(=O)N2CCCC2)cc1 do in these assays?
RecA splice inh: 2.0; Mtb bLac sens: -1

What do the screens show for `CCCn1c(O)c(CN2CCCC(C)C2)c(C)c(C#N)c1=O` (centres undefined)?
YopH PTP inh: -1; RecA splice inh: 3.2; Mtb growth: 8%; Arbovirus anti: 5; Mtb bLac sens: 1

How did CSc1ccc(C(=S)N2CCCC2)cc1 do in these assays?
RecA splice inh: -2.0; Mtb bLac sens: -2

How did CCC(=O)Nc1cccc(NC(=S)NC(=O)c2cc3ccccc3o2)c1 do in these assays?
RecA splice inh: -3.0; Mtb growth: 3%; Arbovirus anti: 4; Mtb bLac sens: -1

How did Cc1sc(-c2ccncc2)nc1OC(=O)c1ccccc1 do in these assays?
YopH PTP inh: -10; RecA splice inh: 1.0; Mtb growth: 1%; Arbovirus anti: 0; Mtb bLac sens: 27

Results for COc1ccc(C2C3=C(CCCC3=O)Nc3nc(SCc4ccc(C(=O)O)cc4)nn32)cc1OC (centres undefined) ?
YopH PTP inh: -28; RecA splice inh: -3.9; Mtb growth: -2%; Arbovirus anti: -4; Mtb bLac sens: -6; Arbovirus anti repeat: -2

Results for NN1C(=O)NC(c2ccccc2)(c2ccccc2)C1=O ?
Mtb growth: -1%; Arbovirus anti: 18; Mtb bLac sens: 5

What do the screens show for `COc1ccc(NC(=O)NCc2ccccc2F)cc1OC`?
RecA splice inh: -3.0; Mtb growth: -8%; Arbovirus anti: -2; Mtb bLac sens: 0

How did CCOc1ccc(NC(=O)c2cc3ccccc3cc2O)cc1 do in these assays?
RecA splice inh: -3.3; Mtb growth: -3%; Mtb bLac sens: -1

Results for COc1ccc([N+](=O)[O-])cc1NC(=O)c1ccc(N2C(=O)CCC2=O)cc1 ?
RecA splice inh: -3.1; Mtb bLac sens: -3

How did O=C(CN1CCN(Cc2ccc(F)cc2Cl)CC1)NCc1ccccc1 do in these assays?
RecA splice inh: 1.2; Mtb bLac sens: -3

What do the screens show for `COCCN(Cc1ccccc1)C(=S)Nc1ccc(OC(F)F)cc1`?
YopH PTP inh: -28; RecA splice inh: 1.5; Mtb growth: 2%; Arbovirus anti: 4; Mtb bLac sens: -10

Results for CCOC(=O)C1(CCCc2ccccc2)CCN(C(=O)c2ocnc2C)CC1 ?
RecA splice inh: 2.7; Mtb growth: -1%; Arbovirus anti: 8; Mtb bLac sens: -2

Results for CCOC(=O)N1CCC(NCCNC(=O)c2cccs2)CC1 ?
YopH PTP inh: -16; RecA splice inh: -1.8; Mtb growth: -9%; Arbovirus anti: 13; Mtb bLac sens: -3

Results for O=C(CCCCCn1c(=S)[nH]c2ccc(N3CCOCC3)cc2c1=O)NCc1ccc(Cl)cc1 ?
RecA splice inh: -10; Mtb growth: 2%; Arbovirus anti: -11; Mtb bLac sens: -6

What do the screens show for `CC(=O)OC1(c2ccccc2)CCN(C)C2CCCCC21` (centres undefined)?
YopH PTP inh: -25; RecA splice inh: -3.9; Mtb growth: -14%; Arbovirus anti: -1; Mtb bLac sens: 1

How did c1cnc2c(Oc3ncnc4sccc34)cccc2c1 do in these assays?
RecA splice inh: -2.5; Mtb growth: -1%; Arbovirus anti: 4; Mtb bLac sens: -11

How did Cc1cc(-c2nc(C)c(-c3nnc(SCC(=O)Nc4cc(Cl)cc(Cl)c4)n3C)s2)no1 do in these assays?
RecA splice inh: 1.3; Mtb growth: -13%; Mtb bLac sens: -3

How did COc1ccc(-c2ccc(=O)n(Cc3cccc([N+](=O)[O-])c3)n2)cc1 do in these assays?
RecA splice inh: 6.8; Mtb growth: 2%; Arbovirus anti: -5; Mtb bLac sens: 1

Results for COc1cccc(NC(=S)Nc2cc(C)cc(C)n2)c1 ?
RecA splice inh: 0.4; Mtb growth: -2%

Results for Nc1nonc1-n1nnc(C(=O)N/N=C/c2cc(Cl)ccc2O)c1CN1CCCCCC1 ?
RecA splice inh: 2.4; Mtb bLac sens: 0

What do the screens show for `CCOc1ccccc1CN1CCNC(=O)C1CC(=O)NCc1ccccn1` (centres undefined)?
RecA splice inh: -0.3; Mtb bLac sens: -9

How did COc1ccccc1NC(=O)Cc1nnc(SCC(=O)Nc2nccs2)n1C do in these assays?
RecA splice inh: -2.4; Mtb bLac sens: -2

What do the screens show for `Cc1cc(C(=O)NCCc2ccc(Cl)cc2)no1`?
RecA splice inh: 1.9; Mtb growth: 7%; Arbovirus anti: 5; Mtb bLac sens: -4

What do the screens show for `Cc1c(Br)c(=O)oc2c(C)c(O)ccc12`?
YopH PTP inh: -31; RecA splice inh: -169; Mtb growth: 14%; Arbovirus anti: 4; Mtb bLac sens: 39

Results for CCn1c(SCC(=O)Nc2cccc(C(C)=O)c2)nnc1C(C)C ?
YopH PTP inh: -35; RecA splice inh: 0.5; Mtb growth: -12%; Arbovirus anti: -4; Mtb bLac sens: 3

How did C[C@H](NC(=O)c1ccco1)C(=O)Nc1ccc2c(c1)OCO2 do in these assays?
RecA splice inh: -1.8; Mtb growth: 0%; Arbovirus anti: 2; Mtb bLac sens: -4

How did O=C1CN(C(=O)COC(=O)CNS(=O)(=O)/C=C/c2ccccc2)c2ccccc2N1 do in these assays?
RecA splice inh: 0.3; Mtb growth: -1%; Arbovirus anti: -1; Mtb bLac sens: -4

Results for O=C(NC1CCN(Cc2ccccc2)CC1)c1ccccc1 ?
RecA splice inh: 2.5; Mtb bLac sens: 3

What do the screens show for `COc1ccc(C(=O)NC(C)c2cc(OC)c(OC)cc2Br)cc1` (centres undefined)?
YopH PTP inh: -46; RecA splice inh: -0.5; Mtb growth: -8%; Arbovirus anti: 3

What do the screens show for `CC1Nc2ccccc2C(=O)N1NS(C)(=O)=O` (centres undefined)?
Mtb growth: 1%; Arbovirus anti: -2; Mtb bLac sens: 2

How did CCN1CCN(C(=O)CCc2nc3ccccc3n2-c2ccccc2)CC1 do in these assays?
YopH PTP inh: -28; RecA splice inh: 0.0; Mtb growth: -2%; Arbovirus anti: 2; Mtb bLac sens: 0

Results for COc1cccc(/C=C/C(=O)OCC(=O)Nc2cc(S(=O)(=O)N3CCOCC3)ccc2C)c1 ?
RecA splice inh: -0.4; Mtb growth: 3%; Arbovirus anti: 2; Mtb bLac sens: 0

What do the screens show for `Cc1cc(NC(=O)CCC(=O)N(Cc2ccco2)C(C(=O)NC2CCCC2)c2ccccc2C)no1` (centres undefined)?
YopH PTP inh: -29; RecA splice inh: -1.5; Mtb growth: -6%; Arbovirus anti: 1; Mtb bLac sens: -5

What do the screens show for `Cc1cccc(NC(=O)CSc2ccc3nnc(-c4cccnc4)n3n2)c1`?
RecA splice inh: -2.2; Mtb bLac sens: inconclusive

How did CC(C)n1nccc1N(Cc1ccc(C#N)cc1)S(=O)(=O)c1ccccc1 do in these assays?
RecA splice inh: 2.2; Mtb bLac sens: 7

What do the screens show for `Nc1nonc1-n1nnc(C(=O)N/N=C/c2cc(Br)ccc2O)c1CNc1ccccc1`?
RecA splice inh: 0.8; Mtb bLac sens: -3

How did COc1cccc(/C=N/n2nnc3c(cnn3-c3ccccc3)c2=O)c1 do in these assays?
YopH PTP inh: -48; Arbovirus anti: -2; Mtb bLac sens: -13

How did COc1ccc(/C=N/NC(=O)c2nnn(-c3nonc3N)c2-c2cccs2)cc1OC do in these assays?
RecA splice inh: 1.7; Mtb bLac sens: 10

Results for CCOC(=O)C1=C(N)Oc2c(oc(CO)cc2=O)C1c1ccc(Cl)cc1 (centres undefined) ?
RecA splice inh: 2.2; Mtb growth: -9%; Mtb bLac sens: -2

Screening data deposited in PubChem BioAssay by several laboratories.
